# GIV-Gai inh – blocks GIV peptide binding to rat Galpha-i3. P08753. Galpha-i3/FITC-GIV peptide fluorescence polarization, 90 min; hits give low values; scaled: aluminum fluoride 0%, vehicle 100%. percent of control (FP), % (no concentration beside the values). 0.42% of 210,000 active. AID 1224905;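 active means replicate mean at 85% of control or lower, very high polarization wells dropped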;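 further: wells of about 15 µL received 100 nL stock; the first replicate is given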
# Target sequence (P08753 whole entry, looked up): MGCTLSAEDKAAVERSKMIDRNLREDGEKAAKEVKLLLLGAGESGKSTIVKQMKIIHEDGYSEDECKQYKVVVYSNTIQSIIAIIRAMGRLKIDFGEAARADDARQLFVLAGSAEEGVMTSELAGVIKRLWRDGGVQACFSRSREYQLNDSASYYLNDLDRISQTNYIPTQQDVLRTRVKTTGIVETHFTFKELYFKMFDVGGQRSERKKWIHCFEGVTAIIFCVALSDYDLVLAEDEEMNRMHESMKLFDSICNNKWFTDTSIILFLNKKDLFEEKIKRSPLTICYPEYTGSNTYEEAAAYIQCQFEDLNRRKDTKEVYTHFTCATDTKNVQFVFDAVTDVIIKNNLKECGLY
# HCMV NEC inh – inhibitors of HCMV UL50-UL53 nuclear egress complex interaction; AID 1918969; 0.15% of 190,000 active; inhibition, % (no concentration beside the values); HTRF UL50-UL53 interaction, normalized percent inhibition;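 active means both replicates at 50% or more, plus weaker picks with an unusually low signal ratio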;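 further: stock transfer was 100 nL into about 20 µL; 0% = negative control wells and 100% = wells with untagged competitor protein; inactives centre near -12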
# Sa growth inh – S. aureus growth inhibition. S. aureus RN4220 growth, OD600, 20 h, 42 °C; hits give low values. relative growth, % (no concentration beside the values). 0.53% of 170,000 active. AID 720641;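 active means growth at 42 °C up to 50% and 20 or more points under that at 30 °C, or under 10% at both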;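 further: 300 nL library stock went into each well; scaled to the means of positive and negative controls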
# Sa growth inh second temp – also measured in Sa growth inh; calls as there; relative growth, %; measured here: growth at 30 °C;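 optical density after 20 h as mean of two plates; 100% = untreated growth and lower means inhibition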
# * marks the source's active call; other numbers are inactive results; . = no result given; & = joins results of further samples.
compound	GIV-Gai inh	HCMV NEC inh	Sa growth inh	Sa growth inh second temp
O=C(NS(=O)(=O)c1cccs1)c1ccccc1Cl	102.6	-4.3	109.7	85.0
O=C(NCCc1ccccn1)c1cn(S(=O)(=O)c2ccccc2)c2ccccc12	102.9	-2.9	106.0	88.6
C=CCn1c(=O)sc2ccccc2c1=O	99.8	1.8	.	.
COc1ccc(OCC(=O)OCc2cc(=O)n3nc(-c4cccs4)sc3n2)cc1	108.9	.	107.3	83.7
CC1CCCCN1C(=O)Nc1cccc(C(F)(F)F)c1 (stereo unspecified)	.	-17.1	91.5	91.9
O=C(COC(=O)c1cncc(Br)c1)Nc1ccccc1	.	-29.9	109.2	81.9
COC(=O)c1ccc(N2C(=O)CC(SCCc3nc4ccccc4[nH]3)C2=O)cc1 (stereo unspecified)	102.0	10.0	100.2	96.2
COc1ccccc1N=C(NO)c1nonc1N	.	-12.0	92.4	89.6
O=C(NCCN1CCN(c2ccccc2)CC1)c1ccccc1F	99.4	-10.1	97.8	79.8
CCN1CCN(C(=O)c2cccs2)CC1	104.7	18.9	82.0	100.3
CCOC(=O)C1CCN(C(=O)CSCc2ccccc2)CC1	108.9	-6.5	105.5	80.0
O=C(Oc1ccccc1N1CCOCC1)C1=Cc2cc(Cl)ccc2OC1	102.7	-27.6	99.6	85.7
O=C1Nc2ccccc2C1Cc1ccc(Cl)cc1 (stereo unspecified)	105.2	2.8	.	.
O=C(c1ccc2c(c1)CCN2S(=O)(=O)c1ccc(Cl)cc1)N1CCN(c2ccc(F)cc2)CC1	105.9	-33.4	111.1	96.8
COc1cc(C=C2C(=O)N(C)C(=O)N(C)C2=O)ccc1OC(=O)c1cc(F)c(F)cc1Cl	100.1	-25.4	.	.
Cc1cccc(Cn2cc(S(=O)(=O)c3cccc(C)c3)c(=O)c3cc(F)c(N4CCOCC4)cc32)c1	103.6	.	145.0	113.3
Cc1cc(-c2ccccn2)n[nH]c1=O	105.4	-52.8	96.3	88.5
Cc1ccc(-c2n[nH]c3c2C(c2cccc(O)c2)N(c2ccc(C(=O)O)cc2)C3=O)cc1 (stereo unspecified)	107.2	0.2	104.5	71.7
CCOC(=O)Cn1c(=O)oc2cc(S(=O)(=O)NCC3CCCO3)ccc21 (stereo unspecified)	105.7	.	107.6	94.5
Cc1nc2ccc(S(=O)(=O)NC(C(=O)N3CCC(C)CC3)C(C)C)cc2s1 (stereo unspecified)	102.3	-4.1	.	.
CN=c1scc(-c2ccc(Br)s2)n1/N=C/c1ccc(OCC(=O)N2CCOCC2)c(OC)c1	.	-32.5	69.2	72.8
CCOc1cc(CN2CCCCC2)ccc1OC	104.8	-18.0	122.8	98.7
COc1ccc(CCNC(=O)Cn2c(=O)n(-c3ccc(C)c(C)c3)c(=O)c3c(C)c(C)sc32)cc1OC	101.9	-7.6	100.3	93.5
COc1ccc(CCN(C)C/C=C/c2ccc(N(C)C)cc2)cc1OC	107.1	-31.0	101.9	110.2
Cc1ccc(Oc2nc3ccccn3c(=O)c2/C=C(\C#N)c2nc3ccccc3s2)c(C)c1	89.4	-56.8	81.0	72.2
O=C(CN1C(=O)COc2ccc(S(=O)(=O)N3CCCC3)cc21)N1CCN(c2ccc(F)cc2)CC1	93.7	-14.8	105.2	83.0
COC(=O)c1scc(-c2ccc(C)cc2)c1S(=O)(=O)Nc1ccc(N(C)C)cc1	110.0	.	104.7	103.4
COC(=O)c1ccc(CN2CCC(c3nc4ccccc4s3)CC2)o1	.	-2.5	97.5	94.3
O=C(NCc1cccc(F)c1)c1ccc(NC(=O)c2nsc3ccccc23)cc1	103.3	.	129.9	89.0
COc1ccc(NC(=O)CSc2nc3cc(OC)c(OC)cc3c3nc(-c4ccccc4)nn23)cc1Cl	99.8	13.5	103.0	101.9
Cc1ccc(C(C)C)c(OCCn2ccnc2)c1	110.3	-8.1	58.7	27.9
COC(=O)c1sccc1S(=O)(=O)N1CCN(c2cccc(C)c2)C(C)C1 (stereo unspecified)	103.7	.	83.8	84.7
Cc1ccn2cc(C(=O)NCc3ccccc3)nc2c1	106.8	11.7	91.5	96.6
CCc1cccc(CC)c1NC(=O)COC(=O)c1cccs1	.	-18.9	128.3	92.4
COC(CNC(=O)c1c(O)nc2ccccn2c1=O)OC	103.2	-42.7	89.3	77.8
CCC1CCCCN1C(=O)c1c[nH]c2ccc(S(=O)(=O)Nc3cccc(OC)c3)cc2c1=O (stereo unspecified)	106.0	.	128.7	87.5
CCOc1ccc(-c2cc(C(=O)NCc3ccccc3Cl)c3ccccc3n2)cc1	98.6	.	123.5	72.7
Cc1cc(C)c(NC(=O)c2ccc(-n3nnc4cccnc43)cc2)c(C)c1	112.6	-33.8	.	.
Cc1c(NC(=O)COCc2cc(-c3cccs3)on2)c(=O)n(-c2ccccc2)n1C	102.9	-39.5	102.5	88.3
CCC(C(=O)Nc1cccc(C(=O)NC2CC2)c1)n1nnc(-c2ccc(Cl)cc2)n1 (stereo unspecified)	.	-3.9	112.5	82.1

# Some of these compounds in order of molar mass, lowest first:
compound	GIV-Gai inh	HCMV NEC inh	Sa growth inh	Sa growth inh second temp
Cc1cc(-c2ccccn2)n[nH]c1=O	105.4	-52.8	96.3	88.5
Cc1ccc(C(C)C)c(OCCn2ccnc2)c1	110.3	-8.1	58.7	27.9
Cc1ccn2cc(C(=O)NCc3ccccc3)nc2c1	106.8	11.7	91.5	96.6
COC(CNC(=O)c1c(O)nc2ccccn2c1=O)OC	103.2	-42.7	89.3	77.8
CCc1cccc(CC)c1NC(=O)COC(=O)c1cccs1	.	-18.9	128.3	92.4
COc1ccc(CCN(C)C/C=C/c2ccc(N(C)C)cc2)cc1OC	107.1	-31.0	101.9	110.2
Cc1cc(C)c(NC(=O)c2ccc(-n3nnc4cccnc43)cc2)c(C)c1	112.6	-33.8	.	.
CCOC(=O)Cn1c(=O)oc2cc(S(=O)(=O)NCC3CCCO3)ccc21 (stereo unspecified)	105.7	.	107.6	94.5
COC(=O)c1sccc1S(=O)(=O)N1CCN(c2cccc(C)c2)C(C)C1 (stereo unspecified)	103.7	.	83.8	84.7
O=C(NCc1cccc(F)c1)c1ccc(NC(=O)c2nsc3ccccc23)cc1	103.3	.	129.9	89.0
Cc1nc2ccc(S(=O)(=O)NC(C(=O)N3CCC(C)CC3)C(C)C)cc2s1 (stereo unspecified)	102.3	-4.1	.	.
CCOc1ccc(-c2cc(C(=O)NCc3ccccc3Cl)c3ccccc3n2)cc1	98.6	.	123.5	72.7
Cc1c(NC(=O)COCc2cc(-c3cccs3)on2)c(=O)n(-c2ccccc2)n1C	102.9	-39.5	102.5	88.3
CCC(C(=O)Nc1cccc(C(=O)NC2CC2)c1)n1nnc(-c2ccc(Cl)cc2)n1 (stereo unspecified)	.	-3.9	112.5	82.1
COC(=O)c1scc(-c2ccc(C)cc2)c1S(=O)(=O)Nc1ccc(N(C)C)cc1	110.0	.	104.7	103.4
Cc1ccc(Oc2nc3ccccn3c(=O)c2/C=C(\C#N)c2nc3ccccc3s2)c(C)c1	89.4	-56.8	81.0	72.2
CCC1CCCCN1C(=O)c1c[nH]c2ccc(S(=O)(=O)Nc3cccc(OC)c3)cc2c1=O (stereo unspecified)	106.0	.	128.7	87.5
O=C(CN1C(=O)COc2ccc(S(=O)(=O)N3CCCC3)cc21)N1CCN(c2ccc(F)cc2)CC1	93.7	-14.8	105.2	83.0
COc1ccc(CCNC(=O)Cn2c(=O)n(-c3ccc(C)c(C)c3)c(=O)c3c(C)c(C)sc32)cc1OC	101.9	-7.6	100.3	93.5
COc1ccc(NC(=O)CSc2nc3cc(OC)c(OC)cc3c3nc(-c4ccccc4)nn23)cc1Cl	99.8	13.5	103.0	101.9
CN=c1scc(-c2ccc(Br)s2)n1/N=C/c1ccc(OCC(=O)N2CCOCC2)c(OC)c1	.	-32.5	69.2	72.8

# Next structures.
compound	GIV-Gai inh	HCMV NEC inh	Sa growth inh	Sa growth inh second temp
Cc1cccc(S(=O)(=O)NC2CCCCC2C)c1 (stereo unspecified)	.	-18.3	120.5	81.5
COc1ccc(C2C(C(=O)Nc3ccc(Cl)cc3)=C(C)Nc3nc(SCc4cccc(C)c4)nn32)cc1OC (stereo unspecified)	104.5	-18.1	95.8	87.1
CC1=C(C(=O)Nc2ccccc2)C(c2cccc(Cl)c2)n2nc(SCC(=O)c3ccc(C)cc3)nc2N1 (stereo unspecified)	102.6	.	113.6	93.0
CCOC(=O)CSc1nc2cc(Cl)c(Cl)cc2n1CC	106.3	-29.3	113.2	94.0
O=C1COc2ccc(S(=O)(=O)N3CCCC(C(=O)NCc4ccccc4Cl)C3)cc2N1 (stereo unspecified)	106.8	-20.0	.	.
COc1ccccc1OCCn1c(=N)n(CCOc2ccccc2)c2ccccc21	102.4	-29.3	35.0	-0.4
CCOc1ccccc1N1CCN(C(=O)[C@@H]2CCCN2C(=O)c2cccs2)CC1	.	-27.8	89.0	87.3
Cc1cc(C)c(NC(=O)C2CCN(C(=O)N3CCOc4ccccc43)CC2)c(C)c1	102.1	-7.8	126.1	94.3
O=C(Nc1nccs1)C1CCC(CNc2c(N3CCOCC3)c(=O)c2=O)CC1 (stereo unspecified)	101.7	-13.7	.	.
COc1cccc(-c2nn3c(Cc4ccccc4)nnc3s2)c1	97.7	.	94.9	84.3
CCOc1ccc(-c2nonc2NC(=O)COc2cc(C)cc(C)c2)cc1C	104.4	-16.7	.	.
O=C(Nc1ccccc1-c1nc2ccccc2[nH]1)c1cc([N+](=O)[O-])cc([N+](=O)[O-])c1Cl	102.0	-12.0	.	.
CCN(C(=O)CSc1nc2n[nH]c(C)c2c(=N)n1-c1cccc(OC)c1)c1cccc(C)c1	105.9	.	85.5	68.7
Cc1nc(-c2cccc(N3CC(C(=O)NCc4ccc(Cl)cc4)CC3=O)c2)no1 (stereo unspecified)	103.0	13.4	.	.
CCOc1ccccc1CNC(=O)c1cc2c(=O)n(Cc3ccco3)ccc2nc1C	97.7	.	99.2	83.5
NS(=O)(=O)c1ccc(CCNCc2ccccn2)cc1	104.9	.	81.0	87.6
Cc1cc(C)c2c(n1)sc1c(=S)nc[nH]c12	111.9	-33.1	90.9	79.5
COc1ccc(OC)c(NC(=O)C2CCCNC2=O)c1 (stereo unspecified)	100.8	.	121.2	87.3
O=C1N=c2ccc(Br)cc2=C1c1sc(=S)n(NC(=O)c2ccccc2Cl)c1O	107.7	6.4	.	.
Cc1ccc(C(=O)OCCN2CCCCC2)cc1	106.1	-24.3	90.5	87.3
O=C(Oc1ccccc1/C=C1/N=C2CCCCCN2C1=O)c1ccccc1Cl	99.8	.	103.4	86.6
COc1cccc(C(=O)NNc2cc(C(F)(F)F)ccn2)c1	110.3	2.2	108.3	99.7
O=C(Cn1ncc2ccccc21)NC1CCCc2ccccc21 (stereo unspecified)	105.6	.	101.2	88.9
CCOc1ccccc1NC(=O)C1CCCN1S(=O)(=O)c1ccc2nc(-c3ccccc3)[nH]c2c1 (stereo unspecified)	105.8	.	121.1	94.1
Cn1c(C(=O)NCCCc2ccccc2)cc2oc3ccccc3c21	110.5	1.0	104.8	90.7
O=C1CON(c2ccc(Cl)c(Cl)c2)C(=O)N1	102.3	.	97.6	77.7
O=C(O)Cn1ncc2c1-c1ccoc1CC2	99.7	-16.8	119.6	87.9
CCOC(=O)N1CCC(NC(=O)Cn2ncc3c2-c2cc(C)ccc2OC3)CC1	99.3	.	103.1	94.9
CCCCCCCC/C=C\CCCCCCCC(=O)NCCc1ccc(O)c(O)c1	105.5	-6.1&5.8&5.8&-10.2	.	.
CC1CN(Cc2nc3c(c(=O)n(C)c(=O)n3C)n2Cc2c(F)cccc2Cl)CC(C)O1 (stereo unspecified)	96.3	4.5	94.0	88.5
CC(C)(N)COc1nonc1N	97.6	2.4	89.0	75.5
CCOC(=O)C1CCN(C2CC(=O)N(c3c(C)cccc3C)C2=O)CC1 (stereo unspecified)	.	-7.2	54.4	86.2
Cc1nc(-c2ccc(C#N)cc2)cs1	104.5	-2.4	111.3	69.5
Cc1ccc(-c2nc(C#N)c(NCCN3CCCCC3)o2)cc1	97.8	-13.7	96.8	90.0
O=S(=O)(c1ccc(C2CCCCC2)cc1)N1CCN(c2ccc(Cl)c(Cl)c2)CC1	106.6	-10.3	95.7	88.9
CCc1cnc2c(c1SCc1c(F)cccc1Cl)c(=O)n(C)c(=O)n2C	102.7	.	156.4	86.0
CCOc1ccc(-c2nnc(-c3ccc(Br)cc3)o2)cc1OCC	105.4	-0.3	115.7	101.9
CCOc1ccc(CCNC(=O)c2ccc3c(c2)nc2n3CCOC2)cc1OCC	105.4	.	81.8	91.4
COc1ccc(OC(C)C(=O)O)cc1 (stereo unspecified)	107.3	-7.3	91.0	81.5
CCOC(=O)c1c(C)oc2nc(C)nc(NC3CCN(C(=O)OCC)CC3)c12	105.3	-19.3	84.7	89.3
N#CC(C(=O)NCc1ccccc1)c1ccccc1 (stereo unspecified)	101.9	-13.9	105.5	88.3
COC(=O)c1ccc(OCC(=O)c2ccccc2OC)cc1	.	-17.8	103.8	92.7
